eIF4H inh: inhibitors of RNA binding by human eIF4H; eIF4H fluorescence polarization binding assay; inhibition, % at 35 µM; Q15056; AID 2012; 0.94% of 290,000 active;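 active = 50% or more with normal probe brightness, or confirmed in later tests; inconclusive = above 50% with abnormal brightness, or retests that disagree; inactive = below 50% or failed in later tests; about a fifth of its hits are not listed in these tables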;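 note: calls also rest on retests at 20 µM and on dose response follow-up; 0% = protein and probe with vehicle and 100% = probe without protein; strong numbers were not always called active; many hits fall short of the cut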
UUG fidelity: alters start codon recognition fidelity in yeast; S. cerevisiae UUG-firefly luciferase reporter, luminescence/redox ratio; activity score, % at 18.7 µM; 0.13% of 350,000 active;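 active = replicate mean at a twofold rise or more, about +100% in these data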;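 note: firefly luciferase made from a UUG start codon reports start codon fidelity; reporter light over untreated wells divided by growth signal over untreated wells; some hits fall short of that in this replicate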
Rce1 inh: blocks yeast Ras-converting enzyme. AID 2563. yeast membranes, quenched prenylated peptide cleavage fluorescence. calls only. 0.27% of 290,000 active. Q03530;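 active = fall in fluorescence gain of 50% or more versus controls, with final raw signal at or below 3038400; inconclusive = same 50% fall but final raw signal above 3038400; inactive = fall in fluorescence gain under 50%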;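 note: plate controls were neutral control wells for no effect and wells lacking membranes for full effect; tested at 10 µM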
Target sequence (Q03530 whole entry, looked up): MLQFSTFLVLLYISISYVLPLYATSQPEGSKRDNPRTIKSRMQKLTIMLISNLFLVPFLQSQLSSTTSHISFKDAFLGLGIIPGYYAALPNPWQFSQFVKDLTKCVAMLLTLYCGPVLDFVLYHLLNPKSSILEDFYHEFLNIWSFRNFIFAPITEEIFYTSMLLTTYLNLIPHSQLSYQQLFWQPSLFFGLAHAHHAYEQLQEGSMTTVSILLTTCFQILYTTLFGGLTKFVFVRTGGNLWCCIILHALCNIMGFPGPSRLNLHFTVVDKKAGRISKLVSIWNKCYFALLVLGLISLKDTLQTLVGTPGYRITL
MT1-MMP act inh: MT1-MMP (human) activation inhibition; GFP/RFP ratio change, % at 20 µM; HT1080 RFP-PRO-GFP cells, GFP/RFP ratio fluorescence, overnight; percent of plate control window, DMSO zero; 0.061% of 360,000 active; P50281;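 active = GFP/RFP ratio change of at least 30% with cell ATP level not reduced by more than half and red fluorescence within 50% of control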; note: strong numbers were not always called active
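system = RFP-PRO-GFP reporter HT1080 cells | dosing = 20 µM single dose, 1% DMSO | timing = overnight cell settling, then overnight compound exposure, 37 °C, 5% CO2 | read-out basis = GFP/RFP fluorescence ratio | controls = DMSO and RFP-L50D-GFP cell wells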
HIV Env fusion: blocks HIV Env-driven cell-cell fusion. inhibition, % at 12.3 µM. 1.1% of 360,000 active. AID 651610. HeLa-JRFL Env/CEM21 cell fusion, luciferase;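 active = mean replicate inhibition score of at least 50 and every replicate individually at or above 50; inconclusive = only one of the two criteria met; inactive = mean below 50 and not all replicates reaching 50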;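 note: 0% = plate neutral controls and 100% = maraviroc near 300 nM; one replicate is shown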
CSC inhib: cancer stem cell inhibition; cancer stem cell-like cells viability, luminescence; inhibition, % at 7.5 µM; 1.1% of 300,000 active;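 active = mean at 75% or more and at least half the replicates too; inconclusive = mean and replicates disagree; tested in HMLE shEcad cells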;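 note: 0% = median of negative and 100% = median of positive control wells; the first replicate is given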
PABP polyA inh: blocks human PABP binding to poly(A) RNA; fluorescence polarization; inhibition, % at 35 µM; 1% of 290,000 active;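 active = 50% or more with normal probe brightness, or confirmed in later tests; inconclusive = above 50% with abnormal brightness, or retests that disagree; inactive = below 50% or failed in later tests; about a fifth of its hits are not listed in these tables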;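 note: calls also rest on retests at 20 µM and on dose response follow-up; controls were probe without protein and protein plus probe with vehicle; some compounds called inactive have numbers as strong as hits; many hits fall short of the cut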
Target sequence (P11940 whole entry, looked up): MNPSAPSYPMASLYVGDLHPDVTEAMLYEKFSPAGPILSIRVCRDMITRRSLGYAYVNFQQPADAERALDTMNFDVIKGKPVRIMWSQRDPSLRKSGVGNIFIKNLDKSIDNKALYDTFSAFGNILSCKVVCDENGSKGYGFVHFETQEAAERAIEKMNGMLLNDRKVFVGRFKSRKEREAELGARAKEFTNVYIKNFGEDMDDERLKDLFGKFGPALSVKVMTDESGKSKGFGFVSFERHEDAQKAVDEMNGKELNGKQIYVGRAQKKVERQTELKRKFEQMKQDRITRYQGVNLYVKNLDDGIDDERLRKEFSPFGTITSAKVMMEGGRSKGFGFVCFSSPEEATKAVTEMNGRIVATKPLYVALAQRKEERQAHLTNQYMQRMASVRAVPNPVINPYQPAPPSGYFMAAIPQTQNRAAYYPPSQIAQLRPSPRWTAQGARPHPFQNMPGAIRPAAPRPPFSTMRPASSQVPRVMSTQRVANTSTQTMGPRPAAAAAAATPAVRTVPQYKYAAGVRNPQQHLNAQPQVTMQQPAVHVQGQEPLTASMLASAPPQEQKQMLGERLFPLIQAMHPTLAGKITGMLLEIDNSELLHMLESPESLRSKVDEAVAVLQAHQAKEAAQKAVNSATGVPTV
eIF4H inh retest: recorded beside eIF4H inh, whose call it bears; inhibition, %; compound at 20 µM; confirmation average;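 mean of two retest wells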
PABP polyA inh retest: also measured in PABP polyA inh; calls as there; inhibition, %; compound at 20 µM; confirmation repeats;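 mean of two retest wells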
MT1-MMP act inh RFP: also measured in MT1-MMP act inh; calls as there; RFP signal change, %; measured here: RFP expression control read;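 0 = vehicle wells; hits needed this value within 50% of zero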
The depositor's hits bear a star; i = inactive; ? = inconclusive; . = no result given.

SMILES	eIF4H inh	UUG fidelity	Rce1 inh	MT1-MMP act inh	MT1-MMP act inh RFP	HIV Env fusion	CSC inhib	PABP polyA inh	others
COc1ccccc1CNS(=O)(=O)c1c(C)nc2sccn2c1=O	0	-13	i	-5	0	-7	-19	-5
COC(=O)CCC(=O)NC1CC(C)(C)Cc2c1cnn2-c1ccc(F)cc1 (stereo unspecified)	-1	-19	i	-2	2	-6	-14	-1
N#CC1(NC(=O)COC(=O)c2cc(O)c3ccccc3c2O)CCCCC1	.	-32	i	-11	8	.	89*	.
Cc1ccc(-c2noc(N=O)c2NO)cc1	-9	-20	i	-2	0	-4	7	-2
COc1ccc2oc(=O)c(C(=O)NCC3CCCO3)cc2c1 (stereo unspecified)	-6	-11	i	-3	2	.	0	8
COc1cccc2sc(NC(=O)c3ccc(Br)s3)nc12	2	-15	i	-11	-19	.	7	-6
CC1CCN(C(=S)c2cccc([N+](=O)[O-])c2)CC1	-6	.	i	-1	3	6	-4	-1
COc1ccc(OC)c(-c2nn(-c3ccccc3)cc2C(=O)NCC(c2ccco2)N2CCCC2)c1 (stereo unspecified)	.	8	.	1	0	4	-9	.
CCOC(=O)N1CCC(NC(=O)C2CCCN2C(=O)OCc2ccccc2)CC1 (stereo unspecified)	-2	-8	i	3	0	.	-8	-3
CCOC(=O)c1cc(-c2ccc(/C=C3/C(=O)NC(=O)C(C#N)=C3C)o2)ccc1Cl	?	-1	i	-63	13	.	0	87*	PABP polyA inh retest=115*
O=C(CSc1nc2ccccc2[nH]1)N1CCN(c2ccccc2)CC1	6	-24	i	9	6	7	10	-5
CC1=C(C(=O)OCC2CCCO2)C(c2ccncc2)C2=C(CCCC2=O)N1 (stereo unspecified)	-1	-11	i	2	5	.	1	-2
CC(C)N1CC(C(=O)Nc2ccc(Cl)cc2Cl)CC1=O (stereo unspecified)	.	-40	.	-1	3	25	.	.
Fc1ccc(NC(=S)Nc2cc(-c3ccccc3)[nH]n2)cc1Cl	-9	-38	i	-1	3	11	88*	2
O=[N+]([O-])CC(c1ccc(F)cc1)c1c[nH]c2ccccc12 (stereo unspecified)	-5	10	i	-3	-8	-28	58	-1
Cc1csc2c(N(C)CCO)ncnc12	-11	.	i	-1	-3	-1	-9	-4
N#C/C(=C/c1cccc(O)c1)C(=O)NCc1ccc(Cl)cc1	0	-12	i	0	1	-18	12	-16
CNc1cncc(-c2cc(C)c(O)c(C)c2)n1	.	-2	.	-7	-5	-9	.	.
COC(=O)Cc1ccc(OC(=O)C2CCN(S(=O)(=O)c3ccc(OC)c(OC)c3)CC2)cc1	.	9	.	-3	-1	-12	2	.
CC(=O)Nc1ccc(OCc2ccc(S(=O)(=O)Cc3ccccc3)cc2)cc1	1	-12	i	7	-1	-8	8	-14
CC(O)CNc1nc2ccccc2n1CC(=O)N1CCN(Cc2ccccc2)CC1 (stereo unspecified)	0	.	i	3	2	15	.	3
CCOC(=O)N1CCN(S(=O)(=O)c2c(C)[nH]c(=O)[nH]c2=O)CC1	-5	-23	i	0	-1	.	18	-2
CN(C)c1ccc(P(=O)(Nc2ccccc2)N2CCOCC2)c(NC(=O)c2cccs2)c1 (stereo unspecified)	-1	-8	i	-12	-2	-9	-20	2
O=C(O)c1ccccc1-c1ccccc1C(=O)Nc1ccc2c(c1)CCC2	4	-1	i	-1	1	4	-13	10
Nc1nnnn1/N=C/c1ccc(N2CCCCC2)c([N+](=O)[O-])c1	-16	.	i	7	0	.	1	-6

For reference, 14 of the compounds above:
SMILES	eIF4H inh	UUG fidelity	Rce1 inh	MT1-MMP act inh	MT1-MMP act inh RFP	HIV Env fusion	CSC inhib	PABP polyA inh	others
O=C(CSc1nc2ccccc2[nH]1)N1CCN(c2ccccc2)CC1	6	-24	i	9	6	7	10	-5
CC1=C(C(=O)OCC2CCCO2)C(c2ccncc2)C2=C(CCCC2=O)N1 (stereo unspecified)	-1	-11	i	2	5	.	1	-2
CC(C)N1CC(C(=O)Nc2ccc(Cl)cc2Cl)CC1=O (stereo unspecified)	.	-40	.	-1	3	25	.	.
Fc1ccc(NC(=S)Nc2cc(-c3ccccc3)[nH]n2)cc1Cl	-9	-38	i	-1	3	11	88*	2
O=[N+]([O-])CC(c1ccc(F)cc1)c1c[nH]c2ccccc12 (stereo unspecified)	-5	10	i	-3	-8	-28	58	-1
Cc1csc2c(N(C)CCO)ncnc12	-11	.	i	-1	-3	-1	-9	-4
N#C/C(=C/c1cccc(O)c1)C(=O)NCc1ccc(Cl)cc1	0	-12	i	0	1	-18	12	-16
CNc1cncc(-c2cc(C)c(O)c(C)c2)n1	.	-2	.	-7	-5	-9	.	.
COC(=O)Cc1ccc(OC(=O)C2CCN(S(=O)(=O)c3ccc(OC)c(OC)c3)CC2)cc1	.	9	.	-3	-1	-12	2	.
CC(=O)Nc1ccc(OCc2ccc(S(=O)(=O)Cc3ccccc3)cc2)cc1	1	-12	i	7	-1	-8	8	-14
CC(O)CNc1nc2ccccc2n1CC(=O)N1CCN(Cc2ccccc2)CC1 (stereo unspecified)	0	.	i	3	2	15	.	3
CCOC(=O)N1CCN(S(=O)(=O)c2c(C)[nH]c(=O)[nH]c2=O)CC1	-5	-23	i	0	-1	.	18	-2
CN(C)c1ccc(P(=O)(Nc2ccccc2)N2CCOCC2)c(NC(=O)c2cccs2)c1 (stereo unspecified)	-1	-8	i	-12	-2	-9	-20	2
O=C(O)c1ccccc1-c1ccccc1C(=O)Nc1ccc2c(c1)CCC2	4	-1	i	-1	1	4	-13	10

Returning to the listing, repeating the 2 entries before the break.
SMILES	eIF4H inh	UUG fidelity	Rce1 inh	MT1-MMP act inh	MT1-MMP act inh RFP	HIV Env fusion	CSC inhib	PABP polyA inh	others
O=C(O)c1ccccc1-c1ccccc1C(=O)Nc1ccc2c(c1)CCC2	4	-1	i	-1	1	4	-13	10
Nc1nnnn1/N=C/c1ccc(N2CCCCC2)c([N+](=O)[O-])c1	-16	.	i	7	0	.	1	-6
CCn1c(=O)cc(OCC(=O)Nc2ccccc2C#N)c2ccccc21	9	-9	i	3	5	-4	-1	-4
Cc1ccc(S(=O)(=O)N2CCCN(S(=O)(=O)c3ccc(C)cc3)CC2)cc1	4	-13	i	-2	-5	-83	2	-6
CCOc1ccc(CN2CCNC(=O)C2CC(=O)NCCc2ccccn2)cc1 (stereo unspecified)	3	.	.	-2	4	6	-8	12
CCOC(=O)N1CCC(Nc2c(-c3ccc(C)cc3)c(=O)c2=O)CC1	8	-3	i	-4	1	-18	-16	39
Cc1ncsc1CCOC(=O)C12CC3CC(CC(C3)C1)C2	0	.	i	4	-3	22	-15	1
O=C(NCc1ccco1)c1ccc(COCC(F)(F)F)cc1	0	0	i	-2	-1	11	14	2
O=C(NC(=S)NNS(=O)(=O)c1ccccc1)c1cccnc1	24	.	i	2	5	11	-5	3
CC1CCCCN1S(=O)(=O)c1ccc(C(=O)Nc2nnc(-c3ccncc3)o2)cc1 (stereo unspecified)	15	.	i	-5	-2	23	29	7
Cc1cccc(OCC(=O)Nc2ccc3c(C)cc(=O)oc3c2)c1	78*	.	i	2	4	-11	-22	14*	eIF4H inh retest=93*;PABP polyA inh retest=90*
CC(O)CNc1nc2c(c(=O)n(C)c(=O)n2C)n1Cc1cccc(Br)c1 (stereo unspecified)	-4	.	i	6	-15	.	8	-5
CN1CCN(S(=O)(=O)c2cccc(C(=O)Oc3ccc(C(C)(C)C)cc3)c2)CC1	.	7	i	4	-2	-13	7	.
COc1ccc(OC)c(S(=O)(=O)N2CCN(C(=O)CCc3ccccc3)CC2)c1	4	-8	i	1	1	16	0	6
CCCCCCC#Cc1cncc(C(=O)NNC(=O)Nc2cc(Cl)cc(Cl)c2)c1	-1	-6	i	3	-6	6	35	2
O=C(Nc1ccc([N+](=O)[O-])cc1)Nc1ccc(OC(F)F)c(Cl)c1	-9	.	.	-32	-38	43	103*	-6
c1ccc(COc2ccc(-c3cc4nc(NCc5ccc6c(c5)OCO6)ccn4n3)cc2)cc1	.	-19	.	-1	-23	34	.	.
Cc1ccccc1NC(=O)c1cccc(N2C(=O)C3C4CC(C(Br)C4Br)C3C2=O)c1 (stereo unspecified)	-10	4	i	3	3	.	14	1
COc1cc(C2C(C#N)=C(C)NC3=C2C(=O)c2ccccc23)cc(OC)c1OC (stereo unspecified)	3	-13	.	13	-3	.	-12	0
CCS(=O)(=O)N1CCC2(CC1)OCCN2S(=O)(=O)c1ccc(OC)cc1	.	-11	i	2	0	2	.	.
O=C(O)c1c2c(nc3ccc(Cl)cc13)CCC2	40	5	i	1	2	5	-3	-4
CC(Sc1n[nH]c(N)n1)C(=O)Nc1cccc2ccccc12 (stereo unspecified)	.	-9	.	2	-2	1	.	.
COCCCNC(=O)CNC(=O)c1nn(-c2ccc(OC)cc2)c(=O)c2ccccc12	-8	3	i	-3	-3	-1	-8	-4
Clc1ccc(-c2cc(CN3CCCCC3)no2)cc1Cl	4	-17	i	2	2	-11	2	3
Cc1ccc(-c2ccc(/C=N/n3cnnc3)o2)cc1Cl	3	-12	i	-2	-8	.	15	-2
O=[N+]([O-])c1ccc(CSc2ncnc3c2ncn3[C@@H]2O[C@H](CO)[C@@H](O)[C@H]2O)cc1	.	-7	.	2	-1	2	-3	.
C=C1CC(C(=O)N/N=C/c2ccccc2)C1	-1	.	i	3	7	3	5	6
SMILES	eIF4H inh	UUG fidelity	Rce1 inh	MT1-MMP act inh	MT1-MMP act inh RFP	HIV Env fusion	CSC inhib	PABP polyA inh	others
COc1cc(/C=N/NC(=O)C(=O)NCc2ccco2)ccc1O	3	-4	i	3	12	10	-3	13
Cc1cc(C)c2c3c(sc2n1)C(=O)N(Cc1ccccc1)CC(=O)N3	5	.	i	-2	1	-32	10	9
Cc1ccc(C)c(N(C)C(=O)CCS(=O)(=O)c2cccc3nonc23)c1	-5	-7	i	3	-1	-10	3	-2
C=CCn1c(=O)c2ccccc2n2c(SCc3nc(N)nc(Nc4ccccc4C)n3)nnc12	6	-15	.	9	1	.	-24	-10
COc1ccc(CCN2CC(=O)NC(=O)C2)cc1OC	.	-9	.	0	2	-19	.	.
Cc1cccc(C(=O)Nc2ccccc2-c2nnn(CC(=O)Nc3ccc4c(c3)OCCO4)n2)c1	4	-19	i	5	-3	-138	-4	5
CNC(=O)CN(C1CCCCC1)S(=O)(=O)c1ccc(OC)c(Cl)c1	1	-7	i	-3	4	.	-1	37
CCn1nc(C)c(CN2CCC(n3nccc3NC(=O)c3ccccc3OC)CC2)c1C	10	-19	i	-2	0	4	-5	3
c1ccc(COc2ncnc3c2ncn3CCCNCC(c2ccccc2)c2ccccc2)cc1	.	-18	.	-26	-17	-33	.	.

This is a random part of the collection, and some 2.9% of all compounds hit somewhere here.
